Compound activity (PubChem)
Biofilm kill mix: mixture kills Candida albicans biofilm cells. 0.02% of 120,000 active. C. albicans biofilm persisters + clotrimazole, fluorescence viability; primary screen in compound mixtures of four per well. AID 1242. inhibition, % at 7.6 µM;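 active means inhibition above 30.3% in the primary screen of four-compound pools, then above 30% when the compound was retested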;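 further: compounds exposed to preformed 24 h biofilms for 48 h; the number belongs to the whole pool; some results filed as inactive read as strong as hits; inactives centre near 12; 0% = biofilm with clotrimazole alone and 100% = kill control; retested singly at about 60 µM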
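System: C. albicans CAF4-2 wild-type biofilms; Medium: RPMI/MOPS medium, pH 7.0; Reagent: Clotrimazole, 50 µg/mL; Times: biofilm formation 24 h, compound exposure 48 h, 37 °C; Detection: 2-h Alamar Blue fluorescence, 535/590 nm excitation/emission; Evaluation: percent inhibition of biofilm viability.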
* marks the source's active call; other numbers are inactive results. Only part of the results is shown; rates above refer to the full screens.

SMILES,Biofilm kill mix
O=C(CCN1C(=O)c2ccc([N+](=O)[O-])cc2C1=O)Nc1ccccc1C(=O)O,6.3
CN(C)C(=O)CSc1nnc(-c2cnccn2)n1C,8.8
COC(=O)C1=C(C(=O)OC)C(c2ccc(OC)c(OC)c2)c2sc(=O)[nH]c2S1 (stereo unspecified),1.4
CCOC(=O)/C=C/c1nc(C(=O)OCC)c(C)c(=O)[nH]1,12.3
O=C1c2ccccc2C(=O)N1/N=C/c1ccc(O)c(O)c1,10.8
CCCCNC(=O)C1CCCN1C(=O)Nc1ccccc1 (stereo unspecified),17.6
Cc1c(C(=O)N/N=C/c2ccc(-c3ccccc3[N+](=O)[O-])o2)sc(N)c1C#N,13.7
CCOC(=O)c1c(NC(=O)Nc2ccc(F)cc2)sc2c1CCN(C)C2,15.3
CCOC(=O)c1c(C)[nH]c2ccc(O)cc12,17.1
Cc1cc(C)cc(NC(=S)N(Cc2cccc(Br)c2)CC2CCC(C(=O)O)CC2)c1 (stereo unspecified),18.1
COc1ccc(/C=N/NC(=O)c2ccc(Cl)c(S(N)(=O)=O)c2)cc1OCC(N)=O,16.8
Cc1cccc(NC(=S)N2CCCN(c3ncccc3[N+](=O)[O-])CC2)c1,24.4
NNC(=O)c1nnn(-c2nonc2N)c1CN1CCc2ccccc2C1,7.9
COc1ccc(-n2c(SCC(=O)Nc3ccc([N+](=O)[O-])cc3OC)nc3ccccc32)cc1,17.7
O=C(NC1CCCCCC1)c1cc(=O)[nH]c2ccc(S(=O)(=O)N3CCOCC3)cc12,5.0
FC(F)(F)c1ccc(CN2C[C@@H]3C(c4ccccc4)C4(c5ccccc5)CC3(C4)[C@H]2c2ccccc2)cc1 (stereo partly specified),16.3
O=C(O)CC1SC(=Nc2ccc(O)cc2)NC1=O (stereo unspecified),1.1
Cn1c(CSc2nc3ccccc3s2)nnc1SCC(=O)NCc1cccnc1,13.3
COc1ccc(Cn2nnnc2CN2CCCCCC2)cc1,16.2
CCc1nnc(NC(=O)CSc2nnnn2C)s1,12.9
O=C(COC(=O)c1ccccc1C(=O)c1ccccc1)Nc1cccc([N+](=O)[O-])c1,5.8
Cn1c(=O)c(-c2ccccc2)nc2ccccc21,-1.6
COC(=O)/C=C\C(=O)Nc1cccc([N+](=O)[O-])c1,15.1
Clc1ccc(-c2cn3c(n2)SCC3)cc1,12.5
Oc1c(C=C2N=c3ccccc3=N2)sc(=S)n1-c1ccc(F)cc1,1.0
CC(C)Oc1ccc(CCC(=O)NNC(=S)NCc2ccccc2)cc1,16.4
O=C1CC(c2ccc(F)cc2)SC(N(c2ccccc2)c2ccccc2)=N1 (stereo unspecified),10.1
CC(C)C(=O)N1CCN(c2ccc(NC(=O)c3ccc([N+](=O)[O-])o3)cc2)CC1,-4.8
CCOC(=O)/C(C#N)=C/c1cn(CCOc2ccccc2)c2ccccc12,17.0
CCN(CCn1cccn1)C(=O)CC1C(=O)NCCN1Cc1cccc(OC)c1OC (stereo unspecified),-6.1
Cc1ccccc1NC(=O)NC1(C(=O)NCCCN2CCOCC2)CCCCC1,-3.2
Cc1ccccc1-c1nc(SCc2cccnc2)c2c(=O)n(C)c(=O)n(C)c2n1,19.2
Cc1ccc(C2(c3noc(CN(C)Cc4cccnc4)n3)CCCC2)cc1,6.9
COC(CNC(=O)CNC(=S)N(CCCN1CCOCC1)Cc1cccs1)OC,14.5
O=S(=O)(N/N=C/c1ccc(N2CCOCC2)cc1)c1ccccc1,8.7
O=C(COc1ccccc1-c1ccccc1)N/N=C/c1ccccn1,1.3
CC(C)(C)c1ccc(C(=O)NNC(=S)NCC2CCCO2)cc1 (stereo unspecified),3.6
COc1ccc(N2CCN(C(=O)C3CC(O)CN3S(=O)(=O)c3ccc([N+](=O)[O-])cc3)CC2)cc1 (stereo unspecified),8.6
COc1ccc(/C(O)=C2/C(=O)C(=O)N(c3ncccn3)C2c2ccc(C(C)(C)C)cc2)cc1 (stereo unspecified),19.5
Cc1ccc(-n2nc3c(=O)n(CC(=O)c4ccc(F)cc4)nc(C)c3c2C)cc1,9.5
Clc1ccc(-c2nnc(CSc3nnc(-c4cccs4)n3Cc3ccccc3)o2)cc1,11.9
COc1ccc(NC(=O)c2nc[nH]c2C(=O)N[C@H](C)c2ccccc2)cc1,10.3
CO/N=C/C(C#N)=C/c1cc(C(=O)c2ccccc2)cn1C,9.1
CCOC(=O)CC1CCCCN1Cc1cn[nH]c1-c1ccc(F)cc1F (stereo unspecified),14.0
Cc1ccsc1/C=N/NC(=O)CNC(=O)c1ccc(S(=O)(=O)N2CCOCC2)cc1,28.7
CN(C(=S)NC1CCCCC1)C1(c2ccccc2Cl)CCCCC1=O (stereo unspecified),15.9
O=C(CCn1cnnn1)Nc1ccccc1,8.0
S=c1[nH]nc(-c2cccnc2)n1/N=C/c1ccc(Br)s1,-2.5
CN1CC=C2C(C#N)=C(N)C(C#N)(C#N)[C@H](c3cccs3)[C@H]2C1,4.4
C#CCNC(=O)C1=C[C@H](c2ccc3c(c2)OCO3)C[C@H](OCc2ccc(CO)cc2)O1,21.0
Fc1ccc(N=c2ssnc2Cl)c(F)c1,19.8
Cc1ccc(/C=N/NC(=O)CSc2nc3ccccc3o2)cc1,1.7
CC1(C)NC(=O)N(CCCCOc2ccc(Cl)cc2C=O)C1=O,13.9
CC(C)OC(=O)c1ccccc1C(=O)c1ccc(N)c([N+](=O)[O-])c1,6.7
COc1ccc(C(C)=O)cc1COC(=O)c1ccc2ccccc2n1,15.5
CCC(C)NC(=O)Nc1ccc(Br)cc1 (stereo unspecified),12.6
Cc1cc(N2C(=O)C3C4CCC(C4)C3C2=O)no1 (stereo unspecified),7.4
COc1ccc(CCN2CN(S(=O)(=O)c3ccccc3)c3nc4ccccc4nc32)cc1OC,13.7
COc1ccc(NC(=O)CC2C(=O)N(c3ccc(OC)cc3)C(=O)N2CCc2cccs2)cc1 (stereo unspecified),-1.3
Cc1ccccc1Nc1c(-c2ccc(N3CCOCC3)cc2)nc2cnccn12,19.6

(cont.)
SMILES,Biofilm kill mix
COC(=O)COc1cccc2c(=O)n(CC(=O)NCc3ccccc3)ccc12,20.6
Cc1cccc(NC(=S)NC2CCCC2)n1,10.1
CCS(=O)(=O)N1Cc2ccccc2CC1C(=O)Nc1nnc(SCc2ccc(C#N)cc2)s1 (stereo unspecified),2.9
Nc1nnc(CC(=O)N/N=C/c2ccc(-c3ccc(F)cc3)o2)s1,25.8
CCOC(=O)c1cnc2c(C)c(Cl)ccc2c1Nc1ccc(S(=O)(=O)Nc2ncccn2)cc1,10.5
CCOc1ccccc1NC(=O)c1cc(C(=O)c2cc(Br)ccc2O)coc1=N,11.1
COc1cc(/C=C/C(=O)OCC(=O)N2CCCCCC2)ccc1OCC#N,11.5
O=C(NCCC(=O)N1CCOCCOCCOCCOCC1)OCc1ccccc1,14.1
c1ccc(Nc2nnc(-c3cccc4ccccc34)o2)cc1,23.4
Cc1ccn(C(=O)c2ccc(NC(=O)C3CC3)cc2)n1,16.1
CNC(=O)c1[nH]cnc1C(=O)N[C@@H](C)C(=O)OC(C)(C)C,19.2
OCC1(Cc2ccccc2C(F)(F)F)CCN(Cc2cccc3cnccc23)CC1,8.0
CC(C)C[C@H](NC(=O)c1nc[nH]c1C(=O)NCCCCCNC(=O)OC(C)(C)C)C(=O)OC(C)(C)C,17.0
CCN(CC)c1ccc(CNc2nc3ccccc3n2CCN2CCOCC2)cc1,6.3
CCCC(=O)Nc1ccc(C(=O)N/N=C/c2ccc[nH]2)cc1,18.3

Gathered by group, the compounds so far containing a CF3 group.
SMILES,Biofilm kill mix
FC(F)(F)c1ccc(CN2C[C@@H]3C(c4ccccc4)C4(c5ccccc5)CC3(C4)[C@H]2c2ccccc2)cc1 (stereo partly specified),16.3
OCC1(Cc2ccccc2C(F)(F)F)CCN(Cc2cccc3cnccc23)CC1,8.0

Of the compounds above, 6 have a cyano group.
SMILES,Biofilm kill mix
Cc1c(C(=O)N/N=C/c2ccc(-c3ccccc3[N+](=O)[O-])o2)sc(N)c1C#N,13.7
CCOC(=O)/C(C#N)=C/c1cn(CCOc2ccccc2)c2ccccc12,17.0
CO/N=C/C(C#N)=C/c1cc(C(=O)c2ccccc2)cn1C,9.1
CN1CC=C2C(C#N)=C(N)C(C#N)(C#N)[C@H](c3cccs3)[C@H]2C1,4.4
CCS(=O)(=O)N1Cc2ccccc2CC1C(=O)Nc1nnc(SCc2ccc(C#N)cc2)s1 (stereo unspecified),2.9
COc1cc(/C=C/C(=O)OCC(=O)N2CCCCCC2)ccc1OCC#N,11.5

The main list resumes with the two entries that preceded the break.
SMILES,Biofilm kill mix
CCN(CC)c1ccc(CNc2nc3ccccc3n2CCN2CCOCC2)cc1,6.3
CCCC(=O)Nc1ccc(C(=O)N/N=C/c2ccc[nH]2)cc1,18.3
Cc1c(NC(=O)C(C)OC(=O)/C=C/c2ccc3c(c2)OCO3)c(=O)n(-c2ccccc2)n1C (stereo unspecified),10.1
O=C(Nc1ccccc1N1CCOCC1)c1ccc(Cl)c(S(=O)(=O)NCc2ccco2)c1,3.4
Cc1ccc(S(=O)(=O)NCc2csc(-c3cccs3)n2)cc1,0.8
Fc1ccc(NC(=S)N2CCCC(c3ccccc3)=N2)cc1,17.4
CN(C)CCCOc1nc2c(c(=O)n(C)c(=O)n2C)n1C,11.0
C/C=C(/C)C(=O)Nc1cccc(C2=NOC3(C2)C[C@@H](C(N)=O)N(C(=O)/C=C/CC)C3)c1 (stereo partly specified),5.0
CCCC1(C)NC(=O)c2ccccc2O1 (stereo unspecified),12.5
CCN(CC)CCCNc1nc(-c2ccccc2)nc2ccccc12,13.0
O=C(O)c1cc(=O)c2c(OCC(O)COc3cccc4oc(C(=O)O)cc(=O)c34)cccc2o1,17.1
Cc1cccc(CCNC(=O)CCS(=O)(=O)c2ccc(Br)cc2)c1,2.0
COC(=O)C1C(O)=CC(=O)CC1C (stereo unspecified),15.0
O=C(/C=C/c1cccc([N+](=O)[O-])c1)NC(=S)Nc1cccc(NC(=O)c2ccccc2Cl)c1,4.9
